# Screening data from PubChem.
# Lassa entry inh = qHTS for Inhibitors of binding or entry into cells for Lassa Virus | Lassa virus pseudotype entry inhibition, cell reporter; control for the full effect not named in the record | Potency, µM (titrated, usually from 37.9 µM), inactives show at the top dose activity change, negative = inhibition, usual class: inhibitors | AID 540256, 2011 | actives 1.2% (n = 300,000); active means well fitted inhibition curve with a large enough effect; inconclusive means small, poorly fitted or top-dose-only effect, or effect the other way; inactive means flat fitted curve, though single readings scatter; tested in HEK293 cells; further: on the % scale 0 is the no-effect control and ±100 the full control effect; nearly all actives have a fitted effect of over 50% in size; luciferase read-out
# RE007 growth inh = qHTS Assay for Inhibitors of the HIV-1 protein Vpr; S. pombe RE007 Vpr strain, BacTiter-Glo ATP luminescence, 24 h; control for the full effect not named in the record; Potency, µM (highest dose often 92.2 µM), inactives show at the top dose activity change, negative = less growth; actives 0.21% (n = 360,000); active = well fitted falling curve with a large enough effect; inconclusive = small, poorly fitted or top-dose-only effect; inactive = no such curve, though single readings can be large or run the other way;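 further: on the % scale 0 is the no-effect control and ±100 the full control effect; nearly all actives have a fitted effect of over 50% in size; the assay follows cell death caused by Vpr and the record does not say whether a fall means rescue or toxicity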
#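 Fission yeast RE007 carrying one integrated HIV-1 vpr copy, seeded at OD 0.01 in PMG+AL medium with 23 nL pinned compound. Grown 24 h at 30 degrees; viability read by BacTiter-Glo luminescence after 5 min.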
# NS1 inh = qHTS Assay for Inhibitors of Influenza NS1 Protein Function | S. cerevisiae slowed by influenza A NS1, growth recovery by OD600 | Potency, µM (top dose mostly 46.1 µM), inactives show at the highest dose activity, positive = more growth | actives 0.4% (n = 270,000) | AID 2326, 2010; active means well fitted rising curve with a large enough effect; inconclusive means small, poorly fitted or top-dose-only effect; inactive means no such curve, though single readings can be large or run the other way; further: nearly all actives have a fitted effect of over 50% in size
#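 Growth recovery, yeast-based: influenza A NS1 expressed in S. cerevisiae causes slow growth, and suppressors are detected by OD600. The parent strain without NS1 is used as positive control.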
# 2A StopGo = High Throughput Screening for Foot and Mouth Disease Virus Antivirals. human cells with a luciferase reporter of 2A StopGo recoding; control for the full effect not named in the record. Potency, µM (series often up to 57.9 µM), inactives show top-dose signal change, negative = less light. actives 1.2% (n = 410,000); active = well fitted falling curve with a large enough effect; inconclusive = small, poorly fitted or top-dose-only effect; inactive = no such curve, though single readings can be large or run the other way; tested in HEK293T cells; further: on the % scale 0 is the no-effect control and ±100 the full control effect; nearly all actives have a fitted effect of over 45% in size; luciferase light after 4 h
# SARS PLP yeast = qHTS of Yeast-based Assay for SARS-CoV PLP. S. cerevisiae expressing SARS-CoV PLpro, growth rescue; control for the full effect not named in the record. Potency, µM (highest dose often 32.9 µM), for inactives: top-dose activity, positive = growth rescue. actives 0.19% (n = 330,000). AID 485353, 2010; active means well fitted rising curve with a large enough effect; inconclusive means small, poorly fitted or top-dose-only effect; inactive means no such curve, though single readings can be large or run the other way; further: 0% is about no effect; nearly all actives have a fitted effect of over 55% in size; growth read by luminescence after 48 h
# Cruzain Triton = qHTS Assay for Promiscuous and Specific Inhibitors of Cruzain (with detergent); Cruzipain (Trypanosoma cruzi), P25779; purified cruzain, Z-FR-AMC fluorescence, 0.01% Triton; Potency, µM, without a hit: max response, negative = inhibition, actives largely listed as inhibitors; actives 0.43% (n = 200,000); AID 1478, 2009;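 further: plate controls were neutral wells for no effect and buffer without enzyme for full effect; nearly all actives have a fitted effect of over 40% in size; top concentration of the series not given in the record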
# Target sequence (P25779 123-467 limits assumed): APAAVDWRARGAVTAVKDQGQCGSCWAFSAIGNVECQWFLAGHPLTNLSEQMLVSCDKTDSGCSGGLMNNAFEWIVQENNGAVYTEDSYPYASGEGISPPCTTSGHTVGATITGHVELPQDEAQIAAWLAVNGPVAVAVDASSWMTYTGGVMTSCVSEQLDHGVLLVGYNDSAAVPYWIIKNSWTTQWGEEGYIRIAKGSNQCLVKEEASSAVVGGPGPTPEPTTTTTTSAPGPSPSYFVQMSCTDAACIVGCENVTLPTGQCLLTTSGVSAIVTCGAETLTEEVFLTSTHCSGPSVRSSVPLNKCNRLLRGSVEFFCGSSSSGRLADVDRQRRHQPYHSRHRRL
#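 Read-out: AMC fluorescence (360 nm excitation, 450 nm emission), four reads over 2 min, first-to-third difference used. Conditions: cruzain 1.5 nM, Z-FR-AMC 2 uM, pH 5.5 acetate, 5 mM DTT, 0.01% Triton X-100.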
# Marburg entry inh = qHTS for inhibitors of binding or entry into cells for Marburg Virus | actives 1.8% (n = 300,000) | AID 540276, 2011 | Marburg virus pseudotyped entry inhibition, cell reporter; control for the full effect not named in the record; about a third of the inactives were read at about 46 µM | Potency, µM (top dose mostly 37.8 µM), for the others: at the top dose activity change, negative = inhibition, usual class: inhibitors; active = well fitted inhibition curve with a large enough effect; inconclusive = small, poorly fitted or top-dose-only effect, or effect the other way; inactive = flat fitted curve, though single readings scatter; tested in HEK293 cells; about a fifth of its hits are not listed in these tables; further: on the % scale 0 is the no-effect control and ±100 the full control effect; luciferase read-out
# Cruzain noTriton = qHTS Assay for Promiscuous and Specific Inhibitors of Cruzain (without detergent). purified cruzain, Z-FR-AMC fluorescence, no detergent. Cruzipain (Trypanosoma cruzi), P25779. Potency, µM, for inactives: max response, negative = inhibition, hits mostly inhibitors. actives 2.3% (n = 200,000). AID 1476, 2009;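 further: plate controls were enzyme without inhibitor for no effect and buffer without enzyme for full effect; nearly all actives have a fitted effect of over 40% in size; top concentration of the series not given in the record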
#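 Purified cruzain at 1.5 nM, pre-incubated 15 min with compound at room temperature in 100 mM sodium acetate pH 5.5, 5 mM DTT, 0.00005% Triton X-100. Reaction started with 2 uM Z-FR-AMC; AMC fluorescence increase over 60 s gives rate.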
# * marks the source's active call; other numbers are inactive results; ? = inconclusive; nt = no result given; & = joins results of further samples; [ ] = another dose, or the depositor's remark. Unless noted, the call rests on the fitted dose curve; in most records, active means well fitted curve in the direction sought with a large enough effect; inconclusive means small, poorly fitted or top-dose-only effect, or another doubt; inactive means no such curve, though single readings can be large; an effect the other way counts as inactive or inconclusive. Potency means the concentration at half of the fitted maximal effect.
SMILES,Lassa entry inh,RE007 growth inh,NS1 inh,2A StopGo,SARS PLP yeast,Cruzain Triton,Marburg entry inh,Cruzain noTriton
CC1CCCCN1C(=O)c1ccc(COc2ccc([N+](=O)[O-])cc2)o1 (configuration not stated),18.7%,nt,-39.1%,-28.5%,2.0%,-6.9%,11.2%,-8.5%
Nc1c(C(=O)N2CCCC2)sc2nc3c(cc12)CCCCCC3,?,-12.3%,nt,78.0%[activator],-2.4%,nt,?,nt
CC1CC(C)CN(S(=O)(=O)c2ccc(C(=O)NCc3ccc4c(c3)OCO4)cc2)C1 (configuration not stated),?,1.1%,9.9%,4.4%,4.0%,0.3%,-27.1%,4.0%
CC/C(=N\NC(=O)Nc1ccccc1)c1c(O)n(Cc2ccccc2)c(=O)[nH]c1=O,-2.3%,-4.9%,0.3%,-10.7%,-1.3%,nt,-2.1%,nt
O=C(O)c1ccc(C=NN=C2c3ccccc3-c3ccccc32)cc1,-17.7%,?,nt,-12.9%,nt,nt,?,nt
CC1CCC/C(=N/NC(=O)c2ccccc2-n2cccc2)C1 (configuration not stated),-16.7%,nt,25.0%,-26.0%,-3.1%,0.0%,-4.7%,19.6%
O=C(CSc1nn(-c2ccc(F)cc2)c(=S)s1)N1CCN(C(=O)c2ccco2)CC1,4.1%,-0.7%,-0.6%,nt,-2.2%,-3.6%,-14.3%,-1.5%
Cc1ccc(-c2cc(-c3ccccc3)c3c(N)c(S(C)(=O)=O)sc3n2)cc1,18.4%,0.5%,17.1%,-8.3%,-3.1%,-7.7%,-26.5%,?
Cc1oc(S(=O)(=O)N2CCCC2)cc1C(=O)Nc1ccc(F)cc1,-12.1%,2.5%,4.0%,?,0.3%,nt,-9.7%[46.1 µM],nt
CC(C(=O)NCc1ccccc1)n1cc([N+](=O)[O-])cn1 (configuration not stated),nt,-12.9%,2.2%,-9.2%,-1.6%,nt,nt,nt

# Another view of part of the listing above:
> CC/C(=N\NC(=O)Nc1ccccc1)c1c(O)n(Cc2ccccc2)c(=O)[nH]c1=O
  Lassa entry inh: -2.3%; RE007 growth inh: -4.9%; NS1 inh: 0.3%; 2A StopGo: -10.7%; SARS PLP yeast: -1.3%; Cruzain Triton: nt; Marburg entry inh: -2.1%; Cruzain noTriton: nt

> O=C(O)c1ccc(C=NN=C2c3ccccc3-c3ccccc32)cc1
  Lassa entry inh: -17.7%; RE007 growth inh: ?; NS1 inh: nt; 2A StopGo: -12.9%; SARS PLP yeast: nt; Cruzain Triton: nt; Marburg entry inh: ?; Cruzain noTriton: nt

> CC1CCC/C(=N/NC(=O)c2ccccc2-n2cccc2)C1 (configuration not stated)
  Lassa entry inh: -16.7%; RE007 growth inh: nt; NS1 inh: 25.0%; 2A StopGo: -26.0%; SARS PLP yeast: -3.1%; Cruzain Triton: 0.0%; Marburg entry inh: -4.7%; Cruzain noTriton: 19.6%

# Further compounds
SMILES,Lassa entry inh,RE007 growth inh,NS1 inh,2A StopGo,SARS PLP yeast,Cruzain Triton,Marburg entry inh,Cruzain noTriton
COc1ccc2c(=O)c3c(=O)n(-c4ccccc4)c(-c4ccc(C)cc4)nc3oc2c1,?,-4.4%,-2.3%,-21.3%,0.1%,nt,2.3%,nt
CCCCSc1nnc([C@@H](NC(=O)OC(C)(C)C)C(C)C)o1,-7.2%,18.2%,-5.5%,-23.3%,6.3%,1.8%,-0.4%,0.4%
Cc1ccnc(NC(=O)C2(c3cccs3)CCOCC2)c1,11.5%,-2.3%,9.6%,-13.7%,5.2%,5.7%,27.9%,2.0%
COCCCNC(=O)CCn1c(=O)c2ccccc2n(CC(=O)Nc2c(C)cccc2C)c1=O,-2.5%,-4.7%,8.2%,-13.1%,3.9%,-2.2%,-7.1%&-7.1%[46.1 µM],-4.2%
O=C(/C=C/c1ccccc1)Nc1scc(-c2ccccc2)c1C(=O)O,nt,-10.9%,4.1%,3.0%,-1.4%,nt,nt,nt
CN(Cc1ccco1)C(=O)c1ccc2c(c1)N(Cc1ccccc1F)C(=O)c1ccccc1S2,?,nt,nt,11.1%,nt,-3.5%,nt,-14.2%
CCCn1c(=O)[nH]c(=O)c2c1nc(-c1ccc(C#N)cc1)n2CCOC,-0.2%[46.1 µM],-5.0%,7.0%,-1.8%,-0.9%,nt,10.2%[46.1 µM],nt
COc1cc(NC(=O)c2ccccc2F)ccc1NC(=O)c1cc2ccccc2o1,?,-5.8%,12.8%,?,2.7%,nt,?,nt
COc1ccccc1Nc1nc(N)nc(CSC(=S)N2CCCCC2)n1,nt,0.2%,-58.6%,43.6%[activator],3.1%,nt,nt,nt
O=C(Nc1cc(-c2nc3cc(Cl)ccc3o2)ccc1Cl)c1cccs1,-24.1%[46.1 µM],nt,nt,3.7%,nt,2.3%,8.4%[46.1 µM],3.9%
Cc1ccc(NC(=O)CSc2n[nH]c(-c3ccncc3)n2)cc1,16.3%,-5.6%,0.4%,13.6%,-5.6%,-4.1%,0.5%,-3.6%
CCCCCCCCc1nnc(NC(=O)c2ccco2)s1,5.2%,-8.3%,-13.8%,nt,-15.3%,-3.0%,-7.9%,?
COc1ccc(C(=O)NC(C)c2ccc(-n3ccnc3)cc2)c(OC)c1OC (configuration not stated),19.6%,-14.5%,5.0%,-11.7%,-0.4%,nt,-3.7%,nt
Cc1ccc(C(C)C)c(OCc2nnc3n2CCCCC3)c1,-2.4%,23.2%,0.0%,-5.2%,3.9%,-3.8%,-2.0%,22.9%
Cc1cccc(-c2nnc(SC(C)C(=O)N3CCOCC3)o2)c1 (configuration not stated),20.5%[46.1 µM],-8.4%,17.7%,15.4%,-3.2%,nt,?,nt
C/C(=N/NC(=O)c1ccccc1)c1ccc(NC(=O)C(F)(F)F)cc1,0.5%[46.1 µM],-8.4%,5.4%,15.1%,0.5%,nt,0.3%[46.1 µM],nt
Cc1cccc(NC(=O)CSCC(=O)N2CCN(Cc3ccc4c(c3)OCO4)CC2)c1,?,-8.2%,nt,-22.3%,4.4%,nt,?,nt
CC1(N(O)C=C2C=CC(=O)C=C2)CCCCC1=O (configuration not stated),nt,3.1%,7.3%,-13.7%,1.5%,nt,nt,nt
CCOC(=O)N1CCN(Cc2c(F)cccc2F)CC1,12.0%,-21.6%,2.2%,-15.6%,5.3%,10.1%,29.2%,-9.8%
C[C@]12CCC3C(CC[C@H]4CC(O)CC[C@]34C)C1CC/C2=N/O (some centres not stated),6.7%,47.6%,-6.0%,-20.0%,-4.7%,nt,13.3%[46.1 µM],nt
Cc1nc(SCC(=O)NCC2CCCO2)c2c3c(sc2n1)CCC3 (configuration not stated),8.0%,25.9%,-33.0%,-19.0%,-3.1%,nt,-19.0%,nt
CC(C)CN=CC1=C(O)c2ccccc2C1=O,?,11.6%,-1.9%,7.3%,-2.8%,nt,1.0%,nt
CCCNC(=O)c1cc2nc(-c3ccccc3)cc(C(F)(F)F)n2n1,-25.1%,4.6%,0.0%,-17.5%,-5.2%,-2.2%,-11.4%,-1.4%
CCN1CCCC1CNC(=O)C(NC(=O)C1CCC(C)CC1)C(C)C (configuration not stated),9.4%,-0.6%,8.7%,-2.2%,2.0%,3.8%,9.3%,-1.5%
CC(SCC(=O)NC(C)C1CC2CCC1C2)C(=O)O (configuration not stated),-0.2%,1.4%,6.3%,0.7%,17.0%,0.9%,-1.4%,-3.2%
Cc1ccc(C(C)(C)NC(=O)C2CCC(=O)N(CCCN3CCOCC3)C2)cc1 (configuration not stated),nt,1.7%,5.7%,-8.4%,-1.6%,nt,nt,nt
C=CCN(CC=C)C(=O)C1CCC(C(=O)N(CC=C)CC=C)CC1 (configuration not stated),-11.3%,4.7%,-2.4%,-6.1%,-5.4%,3.1%,-1.9%,4.5%
Cc1cc(C)nc(/N=C(\N)N2CCCCC2)n1,nt,-15.2%,2.3%,-20.7%,-0.9%,nt,nt,nt
CCn1c(=O)c2cc(C(=O)NCCc3cc(OC)ccc3OC)sc2c2ccccc21,6.1%[46.1 µM],nt,nt,-9.9%,nt,0.5%,-2.0%[46.1 µM],-0.7%
CC(C)(C)OC(=O)N1CCC(c2c(C(=O)NCCN3CCCC3)cnn2-c2ccc(Cl)cc2)CC1,-16.4%[46.1 µM],nt,nt,-13.3%,nt,-2.3%,nt,21.2%
O=C1CCCc2nc(N3CCN(c4ccccc4)CC3)ncc21,?,-7.0%,?,2.0%,0.8%,3.0%,?,-9.6%
CCN1C2=NCCCN2c2cc(C)c(C)cc21,-0.4%,5.8%,-10.7%,-27.2%,1.8%,1.1%,-11.5%[46.1 µM],5.7%
CN(c1nc2ccccc2n2c(-c3ccco3)nnc12)S(=O)(=O)c1ccccc1,3.3%,21.9%,17.6%,4.2%,3.8%,0.7%,11.0%,-3.5%
CCOC(=O)c1cccc(Nc2cc(-c3ccccc3)ncn2)c1,11.4%[46.1 µM],nt,nt,?,nt,-13.4%,-11.1%[46.1 µM],-1.9%
Cc1cc(C)c(C#N)c(Oc2ccccc2)n1,-13.0%,3.9%,0.0%,1.0%,4.3%,6.1%,6.4%[46.1 µM],1.9%
Cc1ccccc1NC(=O)c1ccc(N/N=C/c2ccccc2O)c([N+](=O)[O-])c1,3.8%,1.6%,8.9%,4.1%,3.7%,0.4%,0.7%,10µM*
CCc1cc2ccccc2nc1SCC(=O)Nc1cc(C)on1,?,9.2%,6.8%,-21.7%,0.0%,1.3%,?,-7.9%
C[C@@]12C(=O)N(c3cccc(Br)c3)C(=O)N1[C@H](c1ccc(Cl)cc1)[C@@H]1C(=O)N(C3CCCCC3)C(=O)[C@@H]12,nt,-2.8%,25.8%,?,-0.4%,nt,nt,nt
